# PABP polyA inh = PABP-poly(A) binding inhibition | P11940 | PABP-poly(A) RNA binding, fluorescence polarization | inhibition, % at 35 µM | actives 1% (n = 290,000) | AID 2014;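 active = 50% or more with normal probe brightness, or confirmed in later tests; inconclusive = above 50% with abnormal brightness, or retests that disagree; inactive = below 50% or failed in later tests; about a fifth of its hits are not listed in these tables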;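 note: calls also rest on retests at 20 µM and on dose response follow-up; controls were probe without protein and protein plus probe with vehicle; some compounds called inactive have numbers as strong as hits; many hits fall short of the cut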
# Target sequence (P11940 whole entry, looked up): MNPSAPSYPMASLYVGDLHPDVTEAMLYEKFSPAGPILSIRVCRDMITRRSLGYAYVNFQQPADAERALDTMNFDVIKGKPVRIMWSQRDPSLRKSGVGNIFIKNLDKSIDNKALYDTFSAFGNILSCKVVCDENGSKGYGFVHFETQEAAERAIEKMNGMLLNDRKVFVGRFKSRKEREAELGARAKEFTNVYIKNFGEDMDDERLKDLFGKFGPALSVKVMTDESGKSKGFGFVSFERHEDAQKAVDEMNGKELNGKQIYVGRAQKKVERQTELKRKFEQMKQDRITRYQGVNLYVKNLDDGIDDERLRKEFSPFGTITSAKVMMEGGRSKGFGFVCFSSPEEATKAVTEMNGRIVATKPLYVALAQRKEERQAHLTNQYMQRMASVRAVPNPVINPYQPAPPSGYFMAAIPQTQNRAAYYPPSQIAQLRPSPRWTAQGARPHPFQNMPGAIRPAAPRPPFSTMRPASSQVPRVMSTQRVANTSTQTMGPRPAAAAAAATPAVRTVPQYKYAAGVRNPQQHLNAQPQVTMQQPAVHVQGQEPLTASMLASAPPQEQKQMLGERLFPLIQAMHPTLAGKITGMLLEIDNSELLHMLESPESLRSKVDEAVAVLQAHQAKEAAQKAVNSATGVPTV
# Rce1 inh = yeast Ras-converting enzyme inhibition. yeast membranes, quenched prenylated peptide cleavage fluorescence. Q03530. actives 0.27% (n = 290,000). calls only;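 active = fall in fluorescence gain of 50% or more versus controls, with final raw signal at or below 3038400; inconclusive = same 50% fall but final raw signal above 3038400; inactive = fall in fluorescence gain under 50%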;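 note: plate controls were neutral control wells for no effect and wells lacking membranes for full effect; tested at 10 µM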
# Target sequence (Q03530 whole entry, looked up): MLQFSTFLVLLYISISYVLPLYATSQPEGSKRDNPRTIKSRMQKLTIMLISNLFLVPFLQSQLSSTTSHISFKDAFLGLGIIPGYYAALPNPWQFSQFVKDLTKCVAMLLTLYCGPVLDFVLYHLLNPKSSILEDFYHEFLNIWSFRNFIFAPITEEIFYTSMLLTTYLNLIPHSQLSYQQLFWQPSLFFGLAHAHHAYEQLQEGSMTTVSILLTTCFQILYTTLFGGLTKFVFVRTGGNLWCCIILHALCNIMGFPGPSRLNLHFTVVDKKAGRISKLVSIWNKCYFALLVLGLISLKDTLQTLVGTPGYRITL
# Env fusion inh = blocks HIV Env-driven cell-cell fusion | HeLa-JRFL Env/CEM21 cell fusion, luciferase | inhibition, % at 12.3 µM | actives 1.1% (n = 360,000) | AID 651610;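 active = mean replicate inhibition score of at least 50 and every replicate individually at or above 50; inconclusive = only one of the two criteria met; inactive = mean below 50 and not all replicates reaching 50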;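 note: 0% = plate neutral controls and 100% = maraviroc near 300 nM; one replicate is shown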
# MT1-MMP act inh = inhibitors of human MT1-MMP activation; AID 651647; actives 0.061% (n = 360,000); P50281; GFP/RFP ratio change, % at 20 µM; HT1080 RFP-PRO-GFP cells, GFP/RFP ratio fluorescence, overnight; percent of plate control window, DMSO zero;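 active = GFP/RFP ratio change of at least 30% with cell ATP level not reduced by more than half and red fluorescence within 50% of control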; note: strong numbers were not always called active
#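 Material: RFP-PRO-GFP reporter HT1080 cells. Dosing: single-point 20 µM compound, 1% DMSO. Controls: DMSO and RFP-L50D-GFP cell wells. Timing: cells overnight before dosing, compound overnight, 37 °C, 5% CO2. Measure: GFP/RFP fluorescence ratio.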
# eIF4H FP inh = inhibitors of RNA binding by human eIF4H. Q15056. actives 0.94% (n = 290,000). AID 2012. inhibition, % at 35 µM. eIF4H fluorescence polarization binding assay;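 active = 50% or more with normal probe brightness, or confirmed in later tests; inconclusive = above 50% with abnormal brightness, or retests that disagree; inactive = below 50% or failed in later tests; about a fifth of its hits are not listed in these tables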;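 note: calls also rest on retests at 20 µM and on dose response follow-up; 0% = protein and probe with vehicle and 100% = probe without protein; strong numbers were not always called active; many hits fall short of the cut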
# Yeast UUG start = modulators of start codon recognition fidelity in yeast. S. cerevisiae UUG-firefly luciferase reporter, luminescence/redox ratio. activity score, % at 18.7 µM. actives 0.13% (n = 350,000);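 active = replicate mean at a twofold rise or more, about +100% in these data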;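 note: firefly luciferase made from a UUG start codon reports start codon fidelity; reporter light over untreated wells divided by growth signal over untreated wells; some hits fall short of that in this replicate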
# CSC inhib = blocks cancer stem cells. cancer stem cell-like cells viability, luminescence. inhibition, % at 7.5 µM. actives 1.1% (n = 300,000). AID 2717;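 active = mean at 75% or more and at least half the replicates too; inconclusive = mean and replicates disagree; tested in HMLE shEcad cells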;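 note: 0% = median of negative and 100% = median of positive control wells; the first replicate is given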
# MT1-MMP act inh RFP = further read-out of MT1-MMP act inh, marked with its call; RFP signal change, %; measured here: RFP expression control read;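 0 = vehicle wells; hits needed this value within 50% of zero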
# An asterisk follows results filed as active; i = inactive; ? = inconclusive; · = not tested or not shown; & = joins results of further samples. These rows are one share of the data (hit frequency here may not be typical).
smiles	MT1-MMP act inh RFP	CSC inhib	MT1-MMP act inh	Env fusion inh	PABP polyA inh	Yeast UUG start	Rce1 inh	eIF4H FP inh
C#CCN(C(=O)c1ccc(OC2CCN(Cc3ccccn3)CC2)cc1)C1CCCCC1	-1	-7	1	43	8	-1	i	7
O=C(NC1CCCCC1)NC1CC2CCC(C1)N2C(=O)NCc1ccccc1 (stereo unspecified)	·	8	·	·	6	·	i	-5
Cc1ccccc1C(=O)N1CCC(C(=O)Nc2nc3ccc(F)cc3s2)CC1	-15	-7	-6	27	·	·	i	·
COc1ccc(CCNS(=O)(=O)c2ccc3c(c2)CCN3C(=O)CCC(=O)O)cc1OC	5	17	1	·	4	-3	i	-6
CC(OC(=O)CCN=C1NS(=O)(=O)c2ccccc21)C(=O)Nc1ccc(N(C)C)cc1 (stereo unspecified)	1	-12	-6	-25	·	-13	·	·
OC(COCc1ccccc1)CN1CCN(c2ccccc2F)CC1 (stereo unspecified)	1	-6	1	-14	4	-9	i	-3
CN1CCN(c2ncnc3c2ncn3[C@H]2CN(Cc3ccc4c(c3)OCO4)C[C@@H](CO)O2)CC1	6	·	6	16	·	-11	·	·
COCC(=O)Nc1ccccc1-c1ccccc1	2	·	2	6	-6	-15	i	-5
COc1ccc(CNC(=O)CCC(=O)N2CCN(S(=O)(=O)c3ccc(Cl)cc3)CC2)cc1	3	-21	-4	-6	4	·	i	4
CC(=O)C[C@H](O)CC(=O)[C@H]1OC(=O)[C@H](C)CCCCc2ccccc21	5	·	-4	1	·	1	·	·
Cc1cc(C)c(C(=O)N2CCCC(Nc3ccc(F)cc3)C2)o1 (stereo unspecified)	0	3	1	3	-2	-11	i	-18
Nc1c(-c2ccccc2)n[nH]c1-c1ccccc1	0	·	-6	-53	5	-14	i	-10
COc1ccc(OC)c(-c2cc(C(F)(F)F)c3c(n2)sc2c(O)cc(=O)[nH]c23)c1	2	1	-11	2	-7	·	i	27
CN(Cc1ccccc1)c1ccc(C(CC(N)=O)NC(=O)c2ccc(Br)cc2)cc1[N+](=O)[O-] (stereo unspecified)	-6	21	10	-3	-6	5	i	-2
Cc1cc(NC(=O)CSc2nccn2C)n(-c2ccccc2)n1	-1	-4	-2	18	-7	·	i	-4
CCN1C(=O)[C@H]2[C@@H](c3ccc(OC)cc3)N[C@]3(CCCN(CCC(C)C)C3=O)[C@H]2C1=O	6	·	2	20	·	-7	·	·
CC(C)C1CC(CCN2CCCCC2)(c2ccccc2)CCO1 (stereo unspecified)	-6	-8	-5	-5	9	·	i	-7
Cc1cc(N(C)C)c(C#N)c(N2CCOCC2)n1	4	8	6	·	0	-6	i	-8
CCN1CCN(Cc2ccccc2NC(=O)Nc2ccc(C)cc2)CC1	-1	6	-2	·	3	-13	i	5
CCN(Cc1ccncc1)Cc1cn[nH]c1-c1cc(OC)c(OC)c(OC)c1	3	-4	3	-9	-1	-16	i	-1

# Going on with the list.
smiles	MT1-MMP act inh RFP	CSC inhib	MT1-MMP act inh	Env fusion inh	PABP polyA inh	Yeast UUG start	Rce1 inh	eIF4H FP inh
COc1ccc(N(CC(=O)Nc2ccccc2C(=O)NCc2ccco2)S(C)(=O)=O)cc1	3	8	2	·	1	5	i	8
COc1ccc(NC(=O)c2ccc(Oc3ncccn3)cc2)cc1	-1	-5	1	4	-3	-12	i	-4
CCCCC(CC)C1OCC(C[N+]2(C)CCOCC2)O1 (stereo unspecified)	8	7	0	13	4	-20	i	-2
CC(C)c1nc(SCC(=O)Nc2c[nH]c(=O)[nH]c2=O)c2cnn(-c3ccccc3)c2n1	-1	5	-8	-3	-8	·	i	-5
CCN(CC(=O)Nc1c(F)cccc1F)C(=O)CN1C(=O)c2ccccc2C1=O	3	-8	3	-9	·	-9	i	·
COc1cccc(NC(=O)c2ccccc2SC)c1	1	-5	2	-31	-1	-6	i	0
CCS(=O)(=O)N1CCC(C(=O)NCC2CCCO2)CC1 (stereo unspecified)	5	-3	2	·	-2	·	i	0
O=C(CSc1nnc(SCc2cccc3ccccc23)s1)N/N=C/C=C/c1ccccc1[N+](=O)[O-]	-3	21	-3	-3	5	-6	i	-9
CC(=O)Nc1ccc(S(=O)(=O)N(C)CC(=O)OCC(=O)NCc2ccco2)cc1	1	0	0	-6	·	·	i	·
Cc1ccccc1NS(=O)(=O)c1ccc2c3c(cccc13)C(=O)N2C	6	-10	6	-19	-12	-16	i	1
CCOc1ccccc1NS(=O)(=O)c1ccc2c(c1)NC(=O)CCS2	1	-1	-1	8	-6	5	i	8
CC(C)c1ccc(/C=N/NC(=O)c2ccccn2)cc1	3	?	5	-143	1	-74	i	5
O=C(NCC1CCCO1)/C(=C\c1ccccc1F)NC(=O)c1ccccc1 (stereo unspecified)	2	-9	3	2	-4	-18	i	4
O=C(NNC(=O)c1cc(Cl)nc2ccccc12)c1ccccc1F	1	-9	3	-7	·	·	i	·
O=c1c2ccccc2[nH]c(=S)n1CCCN1CCOCC1	6	-3	0	·	-12	-14	i	-9
Cc1cc(C)cc(NC(=O)CSc2nccn2Cc2ccco2)c1	-5	-13	0	32	-15	-13	i	-5
CCCC(=O)Nc1ccc(NC(=O)c2cccs2)cn1	8	·	9	-24	2	-7	·	-10
COc1ccc(-c2cc3ccccc3n2CC(O)Cn2nc(C)cc2C)cc1 (stereo unspecified)	-15	-9	-30	-131	107*	-13	i	78*
O=C(N/N=C/c1ccco1)c1ccc2nc[nH]c2c1	-2	-5	0	-6	-3	-13	i	1
COc1cccc(C2C(C#N)=C(C)NC3=C2C(=O)CC(C)(C)C3)c1 (stereo unspecified)	-4	9	-5	-2	-4	·	i	4

# (listing goes on)
smiles	MT1-MMP act inh RFP	CSC inhib	MT1-MMP act inh	Env fusion inh	PABP polyA inh	Yeast UUG start	Rce1 inh	eIF4H FP inh
O=C(/C=C\NCC(=O)c1ccccc1)c1ccc2ccccc2c1	5	31	-7	-18	7	-13	i	-12
Cc1ccc(NC(=O)CS(=O)CC(=O)N2CCN(c3ccccc3)CC2)cc1 (stereo unspecified)	-3	7	-1	-5	-4	9	i	-9
CCN1CCN(S(=O)(=O)c2ccc(Cl)c(C(=O)Nc3ccccc3N3CCCCC3)c2)CC1	-6	61	-1	7	·	12	i	·
N#CCC(=O)Nc1ncn(Cc2ccccc2Cl)n1	3	-7	3	14	4	-26	i	1
COc1ccc(C(=O)NCCc2c[nH]c3ccc(OC)cc23)cc1	-1	-1	4	-5	4	-8	i	-2
NC(=O)CC(CC(=O)OCc1ccccc1)c1ccccc1 (stereo unspecified)	-3	-22	-6	-4	-1	-12	i	3
Cc1cccc(S(=O)(=O)Nc2cccc(-c3cn4ccsc4n3)c2)c1	-10	5	7	·	-2	-19	i	-4
COc1ccc(Cl)cc1NS(=O)(=O)N1CCOCC1	2	-23	1	·	10	-12	i	-16
CNC[C@@H]1Oc2cc(Br)ccc2S(=O)(=O)N([C@@H](C)CO)C[C@H]1C	-1	·	0	-41	·	14&-5&6	·	·
CC/C(=N\NC(=O)CNC(=O)/C=C/c1ccco1)c1ccccc1	2	-29	0	·	-5	-9	·	-9
CCOC(=O)C(CCc1nnc(N)s1)C(=O)OCC	-1	-12	-2	·	-3	-3	i	-3
Cc1ccc(CSCC(=O)Nc2ccc(N3CCOCC3)cc2N2CCOCC2)cc1	0	-3	17	-2	·	-9	i	·
O=C1CCCC/C1=C\Nc1ccc(C(=O)O)c(O)c1	11	-5	-3	-3	23	·	i	5
CCC1CCCCN1C(=O)CSc1n[nH]c(N)n1 (stereo unspecified)	2	1	1	-13	·	-21	·	·
CC(=O)N1CCc2cc(Br)cc(S(=O)(=O)N3CCN(C(=O)c4ccco4)CC3)c21	0	0	1	-4	1	-6	i	4
Cc1nnc(SCc2nc3ccccc3[nH]2)s1	4	-1	-1	·	6	-18	i	-2
OCC[C@@H]1C[C@H](O)[C@@H](O)[C@]2(CCc3ccccc3CO2)O1	3	-12	0	16	-6	-4	i	-4
O=c1cc(-c2ccc(O)cc2)oc2ccccc12	1	-2	2	·	6	-7	i	0
COc1ccc(CCNC(=O)Cn2cccc2C(=O)c2ccccc2)cc1OC	8	-9	5	-3	17	·	i	3
O=C(COc1ccc(Cl)cc1Cl)N1CCN(c2ccccn2)CC1	-1	-12	0	0	-4	·	i	1

# Part of the list above in order of heavy-atom count, low to high:
smiles	MT1-MMP act inh RFP	CSC inhib	MT1-MMP act inh	Env fusion inh	PABP polyA inh	Yeast UUG start	Rce1 inh	eIF4H FP inh
O=c1cc(-c2ccc(O)cc2)oc2ccccc12	1	-2	2	·	6	-7	i	0
COc1ccc(Cl)cc1NS(=O)(=O)N1CCOCC1	2	-23	1	·	10	-12	i	-16
NC(=O)CC(CC(=O)OCc1ccccc1)c1ccccc1 (stereo unspecified)	-3	-22	-6	-4	-1	-12	i	3
CNC[C@@H]1Oc2cc(Br)ccc2S(=O)(=O)N([C@@H](C)CO)C[C@H]1C	-1	·	0	-41	·	14&-5&6	·	·
O=C(/C=C\NCC(=O)c1ccccc1)c1ccc2ccccc2c1	5	31	-7	-18	7	-13	i	-12
Cc1cccc(S(=O)(=O)Nc2cccc(-c3cn4ccsc4n3)c2)c1	-10	5	7	·	-2	-19	i	-4
Cc1ccc(NC(=O)CS(=O)CC(=O)N2CCN(c3ccccc3)CC2)cc1 (stereo unspecified)	-3	7	-1	-5	-4	9	i	-9
COc1ccc(CCNC(=O)Cn2cccc2C(=O)c2ccccc2)cc1OC	8	-9	5	-3	17	·	i	3
Cc1ccc(CSCC(=O)Nc2ccc(N3CCOCC3)cc2N2CCOCC2)cc1	0	-3	17	-2	·	-9	i	·
CCN1CCN(S(=O)(=O)c2ccc(Cl)c(C(=O)Nc3ccccc3N3CCCCC3)c2)CC1	-6	61	-1	7	·	12	i	·

# (list continues)
smiles	MT1-MMP act inh RFP	CSC inhib	MT1-MMP act inh	Env fusion inh	PABP polyA inh	Yeast UUG start	Rce1 inh	eIF4H FP inh
C=C(C)Cn1c(N2CCN(CC)CC2)nc2c1c(=O)[nH]c(=O)n2C	6	-8	2	-2	3	-10	i	4
CC1CCC(N2CCN(S(=O)(=O)Cc3ccccc3)CC2)CC1 (stereo unspecified)	6	17	6	10	14	17	i	-5
CCOc1ccc(CCNC(=O)C2CCCN2C(=O)OCc2ccccc2)cc1OCC (stereo unspecified)	-3	-1	-1	10	6	·	i	7
COc1ccc(C(=O)CSc2nc(C(C)(C)C)nc3ccccc23)cc1	-10	21	-1	14	0	·	i	-3
C[C@H](O)[C@@H]1C(=O)N2CCc3ccc(-c4cccc(F)c4)cc3[C@@H]2C[C@@H]1N(C)C(=O)C(C)(C)C	-4	·	-2	-288	·	11	·	·
COc1ccc(CNn2c(-c3cccs3)nc3ccccc3c2=O)cc1OC	-4	3	7	21	3	-3	i	10
Cc1ccc(NC(=O)CCC(=O)c2cccs2)cc1	3	-7	2	-27	-8	-19	i	-4
O=C(c1cc2ccccc2[nH]1)N1O[C@@H]2C=C[C@H]1C2	6	·	3	-33	·	-27	·	·
NC(=O)Cn1c(-c2nonc2N)nc2ccccc21	-1	-13	-1	14	1	·	i	19
